# High-throughput results as filed in PubChem BioAssay.
# gsp antagonist = qHTS for Antagonists of gsp, the Etiologic Mutation Responsible for Fibrous Dysplasia/McCune-Albright Syndrome: qHTS; gsp-mutant cells, cAMP HTRF, 30 min; control for the full effect not named in the record; 340,000 tested, 0.4% active; Potency, µM (doses to about 76.9 µM), for the others: at the highest dose activity change, negative = inhibition, hits mostly inhibitors; active = falling curve of any shape with a large fitted effect; inconclusive = falling curve, mostly with a smaller effect; inactive = flat or rising curve; cell line not stated here;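 also: intracellular cAMP measured with PDE inhibitor Ro 20-1724 present during compound exposure; potency is read from the fitted curve at half-maximal effect; % is scaled to controls: 0 for no effect and ±100 for the full control effect; nearly all actives have a fitted effect of over 65% in size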
#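 Cells in G418 medium, seeded 16-24 h, 37C; buffer exchange to DPBS + 1 mM CaCl2, 0.5 mM MgCl2, 0.05% BSA; cpds in DMSO + […] (300 uM stock), 30 min 37C; HTRF cAMP detection.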
# gsp agonist = qHTS for Agonist of gsp, the Etiologic Mutation Responsible for Fibrous Dysplasia/McCune-Albright Syndrome: qHTS. gsp mutant cells, cAMP HTRF, 30 min; control for the full effect not named in the record. 340,000 tested, 0.13% active. AID 624287, 2012. Potency, µM (highest dose often 76.9 µM), inactives show top-dose activation (cAMP increase), actives largely listed as activators; active = well fitted activation curve with a large enough effect; inconclusive = small, poorly fitted or top-dose-only effect, or another doubt; inactive = no such curve, though single readings can be large or run the other way; cell line not stated here;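 also: phosphodiesterase inhibitor Ro 20-1724 added with compounds to block cAMP breakdown; potency is read from the fitted curve at half-maximal effect; nearly all actives have a fitted effect of over 60% in size; about a fifth of the inactives were tested at one dose only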
#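 Cells in DMEM/10% FBS with G418 were pretreated with compounds in DMSO plus […] (300 uM stock) for 30 min at 37C. cAMP was measured by HTRF (cAMP-d2 plus anti-cAMP antibody-K) after 30 min at room temperature.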
# ClpP mod = qHTS Assay for Activators of ClpP; purified B. subtilis ClpP, FRET peptide cleavage, 20 min; 340,000 tested, 1.9% active; Potency, µM (highest dose often 57.5 µM), inactives show at the top dose activity change, negative = active; ATP-dependent Clp protease proteolytic subunit (Bacillus subtilis (strain 168)), P80244; active = well fitted falling curve with a large enough effect; inconclusive = small, poorly fitted or top-dose-only effect; inactive = no such curve, though single readings can be large or run the other way; also: potency is read from the fitted curve at half-maximal effect; the source files actives as falling curves though it sought activators and does not explain the sign; nearly all actives have a fitted effect of over 65% in size; many hits overshoot -100%
# Target sequence (P80244 whole entry, looked up): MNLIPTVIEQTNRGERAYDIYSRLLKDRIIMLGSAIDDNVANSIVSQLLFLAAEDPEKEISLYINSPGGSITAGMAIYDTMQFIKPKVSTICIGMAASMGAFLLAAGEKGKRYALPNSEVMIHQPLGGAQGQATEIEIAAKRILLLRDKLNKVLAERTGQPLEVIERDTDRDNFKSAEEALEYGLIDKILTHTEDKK
#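 Purified B. subtilis ClpP, 10 microg/mL final in Tris/HCl pH8 with KCl, BSA, glycerol and Tween-20, cleaved an Abz/nitrotyrosine-quenched decapeptide. Fluorescence (ex 320, em 430) was read at 0 and 20 min at room temperature. Delta was normalized to 5.8 microM ADEP and DMSO/no-enzyme controls.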
# Sfp PPTase inh = qHTS Assay for Inhibitors of Bacillus subtilis Sfp phosphopantetheinyl transferase (PPTase); 4'-phosphopantetheinyl transferase ffp (Bacillus subtilis), Q9F4F7; Biochemical Sfp PPTase activity, qHTS; Potency, µM, for inactives: max response, negative = inhibition, most hits filed as inhibitors; 310,000 tested, 3.5% active; AID 1490, 2009; active = well fitted inhibition curve with a large enough effect; inconclusive = small, poorly fitted or top-dose-only effect, or another doubt; inactive = no such curve, though single readings can be large or run the other way;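 also: the enzyme is Sfp with the accession as filed and its product quenches rhodamine fluorescence; potency is read from the fitted curve at half-maximal effect; 0% = enzyme reaction without inhibitor and -100% = no enzyme wells; top concentration of the series not given in the record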
#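 Reaction rates are the 30-min fluorescence difference (ex 525, em 598 nm) in wells containing 15 nM Sfp, 5 uM rhodamine-CoA and 12.5 uM BHQ-2-YbbR at pH 7.6 with 10 mM MgCl2.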
# PINK1 modulator = A Quantitative High throughput Screen to Identify Chemical Modulators of PINK1 Expression; PINK1 immunofluorescence, high-content cytometry, 24 h; Potency, µM (highest dose often 76.6 µM), for inactives: at the highest dose activation (PINK1 increase), usual class: activators; 410,000 tested, 0.2% active; active = well fitted activation curve with a large enough effect; inconclusive = small, poorly fitted or top-dose-only effect; inactive = flat fitted curve, though single readings scatter; cell line not stated here;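 also: potency is read from the fitted curve at half-maximal effect; % of control where 0% means no effect; nearly all actives have a fitted effect of over 65% in size; a mitochondrial uncoupler was the plate control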
#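 A stable cell line was treated with compounds at 5 concentrations for 24 hours, with CCCP as control. PINK1 levels and mitochondrial localization were measured by immunofluorescence with mitochondrial, cell and nuclear markers after fixation, read by laser-scanning cytometry.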
# Menin-MLL FL inh = qHTS Assay for Inhibitors Targeting the Menin-MLL Interaction in MLL Related Leukemias: Competition With Fluorescein Labeled MLL-derived Peptide | Fluorescence polarization, fluorescein-MLL peptide displacement from menin | AID 1766, 2009 | FP activity change, % at 61.4 µM | 290,000 tested, under 10 active; inconclusive = falling polarisation curve, or a change in total fluorescence; inactive = total fluorescence flat and polarisation flat or rising; no compound was filed as active; the % refers to the polarisation; negative = inhibition;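 also: % of control where 0% means no effect; inhibitors lower the polarisation; unlabelled MLL peptide was the positive control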
# D2 ag = Beta-Arrestin HTS for Positive Allosteric Modulators of the Human D2 Dopamine Receptor: Agonists; AID 624465, 2012; activation, % (no concentration beside the values); D(2) dopamine receptor (Homo sapiens), P14416; DiscoveRx PathHunter D2 beta-arrestin, luminescence, 90 min; 100% = 57 uM dopamine signal; 360,000 tested, 0.084% active; in the data active = activation above about 40%; inconclusive = about 15% to 40%; inactive = below about 15%; also: compound concentration not given in the record; the text of the record calls up to 30% inactive
# Target sequence (P14416 whole entry, looked up): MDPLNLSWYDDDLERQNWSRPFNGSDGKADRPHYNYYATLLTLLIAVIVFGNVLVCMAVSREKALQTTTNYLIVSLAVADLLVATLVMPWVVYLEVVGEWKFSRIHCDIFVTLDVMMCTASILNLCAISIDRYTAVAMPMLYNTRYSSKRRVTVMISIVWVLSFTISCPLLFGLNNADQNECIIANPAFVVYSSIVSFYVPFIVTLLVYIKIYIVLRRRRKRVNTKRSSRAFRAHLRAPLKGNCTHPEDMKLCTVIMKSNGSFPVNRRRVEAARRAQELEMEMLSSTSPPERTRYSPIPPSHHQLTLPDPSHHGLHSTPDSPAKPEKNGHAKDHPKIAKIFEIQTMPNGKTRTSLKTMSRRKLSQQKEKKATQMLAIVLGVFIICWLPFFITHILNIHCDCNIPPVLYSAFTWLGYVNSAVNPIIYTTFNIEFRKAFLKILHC
#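 Agonist mode: compounds alone added to overnight-plated D2 PathHunter cells for 90 min at 37 C, with 57 uM final dopamine (EC100) defining full response. Beta-arrestin recruitment detected by chemiluminescent reagent, read after 1 h at ambient temperature.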
# An asterisk follows results filed as active; u = inconclusive; x = no result given; & = joins results of further samples; [ ] = dose if it differs, or a comment.
SMILES,gsp antagonist,gsp agonist,ClpP mod,Sfp PPTase inh,PINK1 modulator,Menin-MLL FL inh,D2 ag
COc1ccc(-c2cc(C(=O)N3CCN(c4ccccc4F)CC3)c3ccccc3n2)c(OC)c1,u,26%,28µM*,11%,1.9%,1.8,-0.5
COC(=O)C(NC(=O)CCc1c(C)nc2ncnn2c1C)C(C)C (stereo unspecified),11%,9%,-0.5%,9%,-0.9%,-0.1,0.1
O=C(COC(=O)/C=C/c1cccc(F)c1)Nc1ccccc1-c1ccccc1,15%,3%,0.0%,-30%,1.9%,5.1,0.8
O=C(COC(=O)CSc1ccccc1)NNC(=O)c1ccc([N+](=O)[O-])cc1,1%,u,-0.4%,30%,-0.7%,x,5.2
COc1cc(CN2CCN(CC#Cc3ccccc3)CC2CCO)cc(OC)c1 (stereo unspecified),-1%,-9%,-17%,12%,0.9%,-3.8,-5.5
Cc1ccc(C(NC(=O)NCCCN2CCOCC2)=C(Cl)Cl)cc1F,18%,-1%,-1.0%,-7%,0.5%,-2.4,-3.2
COc1ccc(-c2cc(C(=O)N3CCN(c4ccccc4OC)CC3)no2)cc1,-7%,14%,x,-10%,0.1%,2.7,11
O=C(COC(=O)C1=COCCO1)Nc1cc(C(F)(F)F)ccc1Cl,7%,3%,-1.5%,x,0.4%,x,-2.8
COc1ccc(C(=O)NC2CC2)cc1OC1CCN(C/C=C/c2ccccc2)CC1,1%,-19%[15.4 µM],2.6%,9%,3.2%,-1.4,3.0
C=CCSc1nnc(NC(=O)c2nc(SCC)ncc2Cl)s1,u,-4%,-2.3%,15%,-5.5%[38.3 µM],-0.9,1.0
Nc1nc(SCC(=O)NC2CCCCCC2)[nH]c(=O)c1-c1ccccc1,3%,u,u,15%,-3.7%[38.3 µM],1.1,-1.1
CCOC(=O)c1c(CN2CCCCC2)n(C)c2cc(Br)c(OC)cc12,-11%,-16%,-1.7%,7%,0.0%,2.1,-3.0
CC(NS(=O)(=O)c1ccc(CCC(=O)NCC2CCCO2)cc1)c1ccccc1 (stereo unspecified),10%,-14%,-2.0%,1%,-1.1%,2.0,-1.1
COc1ccc(C(O)c2ncc(-c3cccc4ccccc34)[nH]2)cc1F (stereo unspecified),x,x,4.8%,x,5.0%,x,-2.6
CC(C)OC(=O)N(C)C[C@H]1OCc2cnnn2CCCC(=O)N([C@H](C)CO)C[C@H]1C,x,-7%,-4.9%,x,1.4%,x,5.4
COc1ccc(NC(=O)C2CCN(c3nc(C)cc(C)n3)CC2)cc1,7%,u,-14%,12%,0.6%,1.8,-4.1
CCCCNC(=S)Nc1cc([N+](=O)[O-])ccc1C,10%,u,-10%,4%,0.9%,1.9,-3.4
NC(=O)C(c1ccc(Cl)cc1)c1ncc(C(F)(F)F)cc1Cl (stereo unspecified),-7%,10%,-0.4%,15%,-1.0%,2.9,-3.9
CC(C)(C)OC(=O)N[C@H](C(=O)OC(C)(C)C)c1ccc(C(F)(F)F)cc1,0%,-81%[inhibitor],-0.7%,x,0.8%,x,-2.2
NS(=O)(=O)c1ccc(NC(=O)c2cccc(N3C(=O)c4ccccc4C3=O)c2)cc1,5%,8%[15.4 µM],x,u,1.4%,0.2,-8.6
CCOc1ccccc1NC(=O)CN1C(=O)COc2ccc(S(=O)(=O)N3CCOCC3)cc21,3%,u,-2.6%&0.5%,5%,0.4%&0.8%,x,-1.5
COc1cc(/C=C2/NC(=O)NC2=O)cc(Br)c1OCc1ccc(C(=O)O)cc1,-7%,-16%[15.4 µM],x,21%,0.2%,-1.5,-4.7
CC(C)Nc1nc(Oc2ccc(Cl)cc2Cl)cc(C(F)(F)F)n1,-17%,u,u,7%,x,-2.2,2.0
COC(=O)CCCCC1SCC2NC(=O)NC21O (stereo unspecified),12%,-8%,1.6%,20%,-0.1%,-1.2,-3.6
COc1ccc(NCc2nnc(SCc3ccccc3)n2-c2ccc(OC)cc2)cc1,-16%,-23%,1.5%,7%,0.8%[38.3 µM],5.7,-4.8
CCN(C(=O)c1cccs1)C1CCS(=O)(=O)C1 (stereo unspecified),7%,-17%[15.4 µM],x,x,-0.2%,x,-2.7
COC(=O)c1cc2sc(Cl)cc2n1CC(=O)NCC1CCCO1 (stereo unspecified),-9%,-5%,0.7%,-1%,-2.6%,0.9,-1.3
CCOc1ccccc1N(CC(=O)NC1CCCCC1)C(=O)CNC(=O)c1ccco1,-4%,-10%,2.0%,7%,-1.0%,1.3,-2.8
NC(Cc1ccccc1)C(=O)N1CCCCC1 (stereo unspecified),8%,-8%,x,3%,3.0%,6.0,0.5
O=C(NCCNC1CCC(c2ccccc2)CC1)c1ccc(F)cc1 (stereo unspecified),11%,0%[15.4 µM],0.2%,-9%,3.3%,-1.1,-9.1
Cc1ccccc1C(=O)Nc1ccccc1C(=O)NCC(C)C,-2%,-1%,1.4%,8%,-0.2%,-3.8,-1.0
Cc1nn(C(C)C(=O)NCCCc2ccccc2)c(=O)c2nn(-c3ccccc3)c(C)c12 (stereo unspecified),-2%,u,-0.5%,-5%,1.1%,x,-5.1
COc1cc(NC(=S)N2CCC(C(O)(c3ccccc3)c3ccccc3)CC2)cc(OC)c1,-19%,-32%[inhibitor],-1.6%,12%,2.1%,3.8,-0.7
COc1ccccc1C(=O)Nc1ccnn1C1CCN(CCCC2CCCC2)CC1,7%,u,-0.7%,8%,-1.2%,0.9,2.4
Cc1ccc(N2C(=O)/C(=C/c3ccco3)SC2=S)cc1,9%,12%[15.4 µM],x,u,0.4%,24,1.9
CC(Sc1nc(C(F)(F)F)nc2ccccc12)C(=O)NC1CCCC1 (stereo unspecified),-67%,24%[15.4 µM],x,x,7.1%,x,-4.1
O=C(c1ccncc1)N1CCC2(CC1)CN(c1ccccc1)C2,x,x,x,-6%,-1.1%,2.9,x
CCC(=O)N(Cc1cc(=O)[nH]c2ccccc12)C1CCCCC1,5%,u,-15%,-1%,-1.8%,1.8,-3.3
CCC(C)(C)n1nnnc1C(C(C)C)N(Cc1cccnc1)Cc1ccco1 (stereo unspecified),1%,-44%[inhibitor],1.5%,8%,0.7%,0.7,-3.6
COc1ccccc1N(C)S(=O)(=O)c1ccc(C(=O)OCC(=O)NCCC2=CCCCC2)cc1,-4%,3%[15.4 µM],1.2%,4%,-1.3%,2.6,-7.7
CCC(=O)NC(=S)Nc1ccc(NC(=O)c2ccco2)c(OC)c1,u,7%,2.7%,-21%,-1.0%,4.5,-0.6
CC(=O)N1CCN(C(=S)NC(=O)c2c(-c3ccccc3Cl)noc2C)CC1,-8%,22%[15.4 µM],x,-27%,1.0%,-4.2,-3.3
COc1ccc(-n2cc(CN(C)Cc3n[nH]c(=O)[nH]3)c(-c3cccc(F)c3)n2)cc1,-20%,-5%[15.4 µM],0.8%,-13%,4.5%,1.4,0.1
C(=C\c1ccccc1)/CN1CCN(Cc2ccc3c(c2)OCO3)CC1,8%,-1%[15.4 µM],-2.1%,-36%,3.5%,0.1,1.2
CCS(=O)(=O)c1nc2ccccc2n1CC(=O)N1CCCCC1,-4%,u,-2.4%,1%,7.1%,6.4,3.3
COc1ccc(NC(=O)CCNS(=O)(=O)c2ccc(Cl)c([N+](=O)[O-])c2)cc1S(N)(=O)=O,8%,2%,x,22%,0.3%,-4.0,-3.4
CN(Cc1cnccn1)C(=O)C1CCC(=O)N(CCc2ccc(Cl)cc2)C1 (stereo unspecified),7%,14%,x,14%,0.3%,-0.3,-1.1
S=C(NCc1ccco1)NCC(c1ccco1)N1CCCCC1 (stereo unspecified),x,-11%[15.4 µM],x,-5%,-0.3%,-4.9,-1.5
O=[N+]([O-])c1ccc2nc(-c3ccccc3)n(OCc3ccc(Cl)cc3)c2c1,-17%,1%,2.1%,10%,1.5%,2.4,-0.5
COC(=O)c1c(NC(=S)NNS(=O)(=O)c2ccc(OC)cc2OC)sc2c1CCCCCC2,-21%,-9%,-5.3%,28%,-0.9%,x,-5.5
COc1ccc(/C=N/Nc2nccnc2Cl)cc1,-10%,-4%,-2.3%,-24%,1.8%[38.3 µM],-0.8,0.9
Cc1cc(C(=O)NN=C2CCCCCC2)c(C)o1,16%,11%,-0.9%,5%,0.8%,1.2,2.9
O=C(Nc1cccc(Cl)c1)c1ccc(NCCCN2CCOCC2)c([N+](=O)[O-])c1,-4%,26%,-1.3%,-10%,2.0%,3.0,-2.4
COc1cc(OC)cc(C(=O)OCCCOC(=O)c2cc(OC)cc(OC)c2)c1,9%,-52%[inhibitor],-6.9%,-13%,3.2%,x,-10
CCOC(=O)C1(CCOc2ccccc2)CCN(C(=O)c2ccc(-n3cccn3)cc2)CC1,-27%,9%[15.4 µM],x,-9%,7.9%,-2.8,2.6
COc1cc(/C=C/C(=O)OCC(=O)NCCCc2ccccc2)ccc1O,-8%,-8%,-21%,x,1.5%,x,-6.2
O=C(NCCCN1CCOCC1)c1ccc2c(=O)n(Cc3cccc(Br)c3)c(=S)[nH]c2c1,-15%,11%,x,-4%,6.0%,-1.3,4.2
COc1ccc2[nH]cc(C(=O)CN3CCN(C(=O)c4ccco4)CC3)c2c1,-7%,-5%,-3.7%,-5%,1.3%,2.1,-1.6
CCOc1ccc(NC(=S)N2CCC(NC(=O)c3ccccc3)CC2)cc1,4%,4%[15.4 µM],x,11%,1.9%,2.8,-3.3
CCN(CC)C(=O)C1=C(C)N(Cc2ccccc2)C(=O)C(CC(=O)NC2CCCCC2)C1 (stereo unspecified),x,-49%[inhibitor],0.2%,x,-0.3%,x,-6.8
